# Polio RdRp inh: poliovirus RNA polymerase inhibition. actives 0.66% (n = 150,000). % elongation, % (compound at 16.7 µg/mL). poliovirus polymerase elongation, fluorescence polarization; stronger effect = lower value; in the data active = % elongation below about 90%; note: some results filed as inactive read as strong as hits
# Target sequence (P03300 1749-2209 limits assumed): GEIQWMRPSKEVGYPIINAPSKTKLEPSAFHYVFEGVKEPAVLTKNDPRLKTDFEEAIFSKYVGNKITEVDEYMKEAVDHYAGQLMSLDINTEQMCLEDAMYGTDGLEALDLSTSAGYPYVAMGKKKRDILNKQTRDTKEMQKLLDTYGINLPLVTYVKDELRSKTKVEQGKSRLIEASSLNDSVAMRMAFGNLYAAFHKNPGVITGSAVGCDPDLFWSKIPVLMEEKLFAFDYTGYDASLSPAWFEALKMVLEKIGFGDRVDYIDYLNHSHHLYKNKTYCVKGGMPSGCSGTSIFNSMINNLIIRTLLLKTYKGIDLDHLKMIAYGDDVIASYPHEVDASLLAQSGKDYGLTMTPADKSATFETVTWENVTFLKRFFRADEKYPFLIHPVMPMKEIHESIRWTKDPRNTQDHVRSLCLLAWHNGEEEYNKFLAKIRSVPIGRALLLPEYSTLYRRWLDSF
# Mtb MenB inh: Mtb MenB enzyme inhibition. AID 540299. MenB enzyme assay, absorbance read-out; some hits fall short of the stated cut. P9WNP5. actives 0.43% (n = 100,000). inhibition, %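 (about 12 µg/mL by stock and volumes)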;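 active = mean of two replicates above 30%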;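 note: 0% = no compound and 100% = wells with inactive enzyme; the first replicate is given; strong numbers were not always called active; inactives centre near -10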
# Mtb MbtI inh: blocks the Mycobacterium tuberculosis siderophore enzyme MbtI; P9WFX0; purified MbtI enzyme, fluorescence intensity read-out; inhibition, %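 (about 17 µg/mL by stock and volumes)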; actives 0.89% (n = 100,000); AID 493033;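 active = above 50% in both replicates, above 80% if mildly self-fluorescent; inactive = the rest, strongly fluorescent compounds included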;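 note: 0% = mean of negative and 100% = mean of positive controls; one replicate is shown; some compounds called inactive have numbers as strong as hits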
# Target sequence (P9WFX0 whole entry, looked up): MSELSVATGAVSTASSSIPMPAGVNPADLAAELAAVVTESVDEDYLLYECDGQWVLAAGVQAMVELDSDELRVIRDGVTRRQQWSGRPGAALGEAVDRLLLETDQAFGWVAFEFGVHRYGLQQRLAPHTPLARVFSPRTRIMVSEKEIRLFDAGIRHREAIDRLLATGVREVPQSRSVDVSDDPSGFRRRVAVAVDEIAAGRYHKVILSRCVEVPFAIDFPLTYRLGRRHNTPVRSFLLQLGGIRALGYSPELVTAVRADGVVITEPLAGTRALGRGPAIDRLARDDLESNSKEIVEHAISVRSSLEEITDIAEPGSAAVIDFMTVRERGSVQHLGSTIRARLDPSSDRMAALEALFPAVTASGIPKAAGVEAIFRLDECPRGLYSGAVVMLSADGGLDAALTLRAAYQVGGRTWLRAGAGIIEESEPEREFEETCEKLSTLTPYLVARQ
# Polio RdRp inh intensity: recorded beside Polio RdRp inh, whose call it bears; % elongation; measured here: total intensity read-out; formula for this scale not given here;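 total fluorescence in place of polarization; lower means less elongation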
# The depositor's hits bear a star; . = not tested or not shown.
SMILES,Polio RdRp inh,Polio RdRp inh intensity,Mtb MenB inh,Mtb MbtI inh
CNC(=S)N1CCN(c2nc3ccccc3s2)CC1,101,103,-31,-4
N#CC(C#N)=CNc1ccccn1,101,98,-76,-5
CCn1c(N)c(C(=O)COC(=O)c2c(C)nn(Cc3ccccc3)c2Cl)c(=O)[nH]c1=O,.,.,-10,0
CC(Nc1cc(C)ccn1)=C(C#N)C#N,96,88,-75,24
O=C(c1ccccc1)N1CCCn2c1nc1ccccc12,108,112,-7,.
CC1=C(C(=O)Nc2ccccc2)C(c2ccc(C(C)C)cc2)n2ncnc2N1 (configuration not stated),102,104,-2,9
CSc1nnc(C)c(=O)n1COC(=O)/C=C/c1ccc2c(c1)OCO2,101,98,-23,-15
CSc1ccc(CNc2ccccn2)cc1,101,100,-67,7
O=C(OCCOc1ccc(Br)cc1)c1cccs1,104,102,7,5
COC(=O)C[n+]1ccc(C)cc1,100,103,-20,1
Oc1ccc(C=NCC2OCCc3ccccc32)cc1 (configuration not stated),102,105,-5,-4
CNC(=O)NC(=O)COc1ccc(Oc2ccccc2)cc1,106,99,-17,-5
COc1ccc(NC(=O)C2CC(=O)N/C(=N/N=C(\C)c3ccccc3)S2)cc1 (configuration not stated),104,103,-48,7
O=C1C2C(c3ccccc3)OC3(C(=O)c4ccccc4C3=O)C2C(=O)N1C1CCCCC1 (configuration not stated),101,104,-91,-8
CS(=O)(=O)Nc1cccc(C(=O)OCC(=O)c2cccs2)c1,104,108,7,-29
CCCCc1c(C)[nH]c2ccccc2c1=O,100,102,-28,-62
CCCNC(=O)C1CCN(c2nn3c(=O)cc(C)nc3s2)CC1,106,106,-14,16
CN(C(=O)COC(=O)c1nccnc1N)c1ccccc1,101,108,8,101
CCC(C)CCCNc1nnc(SCC(=O)c2nnc(-c3ccccc3)o2)s1 (configuration not stated),104,96,5,3
COC(=O)c1sc(N)c(C(=O)OC)c1COC(=O)CCN=C1NS(=O)(=O)c2ccccc21,105,113,-21,-10
COc1ccc(C2C(C(=O)N3CC(C)CC(C)C3)CCC(=O)N2c2cc(OC)c(OC)c(OC)c2)cc1 (configuration not stated),99,103,-27,-2
O=C(O)c1ccc(C23CC4CC(CC(C4)C2)C3)o1,99,97,-1,3
CN(C)Cc1c(O)ccc2occ(C(=O)c3cccc(Br)c3)c12,106,109,-1,.
CCCCCn1nnc2c(=O)oc3ccccc3c21,101,105,12,3
CN(C)S(=O)(=O)c1ccc(C(=O)NC2=N/C(=C(/C#N)C(=O)N3CCCCC3)c3ccccc32)cc1,100,105,2,8
CCC(N)C(=O)c1ccc(Cl)cc1 (configuration not stated),101,104,32*,3
Cc1cc(C(=O)Nc2ccccc2)c(C)o1,99,102,-7,-12
CC(=O)Oc1ccccc1C(=O)N1CCN(c2cccc(Cl)c2)CC1,104,113,-2,.
O=C(OCc1cn(-c2ccccc2)nc1-c1ccccc1)c1ccco1,104,105,-8,-12
c1ccc(CSc2ncnc3c2oc2ccccc23)cc1,106,105,-7,.
CCOC(=O)c1cc(S(=O)(=O)N2CCN(c3ccccc3F)CC2)cn1C,100,102,-2,-14
c1ccc2c(NC3CC3)nc(N3CCCC3)nc2c1,99,101,-54,111
CCCCn1c(=O)[nH]c(=O)c2c1nc(-c1ccc(-c3ccc(Cl)cc3)o1)n2C,87,129,-9,-8
O=C1C2=C(Nc3ccccc3SC2c2ccsc2)c2ccccc21 (configuration not stated),101,103,-15,-4
CC(C)n1c(C(O)c2ccc(N(C)C)cc2)nc2ccccc21 (configuration not stated),105,103,-26,0
Oc1ccc2ccccc2c1C1Nc2ccccc2-n2cccc21 (configuration not stated),105,107,-21,-7
O=C(CCc1ccccc1)Nc1ccc(C(=O)OC2CCCCC2)cc1,104,104,4,.
CC1(C)CC(=O)C2=C(C1)NCN(CCCN1CCOCC1)C2,101,100,-25,2
O=c1cc(NCc2ccccc2)n(-c2ccccc2)c(=O)n1-c1ccccc1,110,108,0,-9
N#CCSc1nc(C2CC2)cc(-c2ccc(F)cc2)c1C(N)=O,102,113,-4,.
O=C(Nc1ccccc1)C1CC(=O)N(c2ccccc2)C1 (configuration not stated),100,100,-3,-10
CCOc1ccccc1C1C(C#N)=C(N)SC(N)=C1C#N,73,193,-27,59
CSc1nc2ccccc2n1CN1CCN(S(=O)(=O)c2ccccc2C#N)CC1,99,98,-10,-27
CN(c1ccc(F)cc1)S(=O)(=O)N1CCCC(C(=O)N2CCN(c3ncccn3)CC2)C1 (configuration not stated),102,103,-15,45
COc1ccc2c(c1)N(C)/C(=C1/SC(=S)N(C)C1=O)S2,101,106,-48,-5
Cc1ccc2nc(SCC(=O)NC(=O)C(C)(C)C)[nH]c2c1,103,108,7,0
CCC(=O)N/C(N)=N/c1nc2ccccc2o1,106,103,-7,2
Cc1ccc(C(CC(=O)N2CCC(C)CC2)N2Cc3ccccc3C2=O)cc1 (configuration not stated),103,103,0,-21
O=C(OCc1ccc(Br)cc1)C1CCCCN1S(=O)(=O)c1ccc(F)cc1 (configuration not stated),102,104,-106,-5
COC(=O)C1Cc2ccccc2CN1S(=O)(=O)c1ccc(F)cc1 (configuration not stated),105,101,-10,-11
# Next section:
SMILES,Polio RdRp inh,Polio RdRp inh intensity,Mtb MenB inh,Mtb MbtI inh
Cn1c(-c2sc(=S)n(-c3ccccc3)c2N)nc2ccccc21,104,111,-20,2
CCCc1c(C(=O)N(Cc2ccccc2)Cc2cccs2)cnn1-c1ccccc1,104,112,-2,-3
NC(=O)C[n+]1cccc(/C=N/O)c1,103,103,-6,2
CCNC(=O)c1ccc(-n2c(C)ccc2C)cc1,106,106,-9,-12
CCOC(=O)C1=C(C)NC(=S)NC1c1ccc(-c2ccccc2Cl)o1 (configuration not stated),102,104,60*,34
CC(c1ccccc1)n1cncc1C(=O)N1CCCC1=O (configuration not stated),102,104,13,-5
FC(F)(F)c1cccc(N2CCN(Cc3ccoc3)CC2)c1,97,102,-1,-29
CCCCn1c(SCC(=O)NC)nc2ccccc2c1=O,109,113,-9,-2
O=C(O)CCCn1ccc2cc(S(=O)(=O)N3CCCC3)ccc21,101,101,-20,4
Fc1ccc(NC2=NCCN2)cc1,99,106,4,-27

# Copied from the entries so far for reference:
SMILES,Polio RdRp inh,Polio RdRp inh intensity,Mtb MenB inh,Mtb MbtI inh
O=C(O)CCCn1ccc2cc(S(=O)(=O)N3CCCC3)ccc21,101,101,-20,4
Fc1ccc(NC2=NCCN2)cc1,99,106,4,-27

# New compounds follow
SMILES,Polio RdRp inh,Polio RdRp inh intensity,Mtb MenB inh,Mtb MbtI inh
CCCOc1ccc(OCCSc2nc(N)cc(=O)[nH]2)cc1,103,104,-38,-9
COc1ccc(CNCCCn2ccnc2)c(OC)c1,101,99,-4,-2
CCN1CCCC1Cn1c(=S)[nH]c2ccccc2c1=O (configuration not stated),103,105,-21,18
CCc1cccc(NC(=O)C2COc3ccccc3O2)c1 (configuration not stated),102,109,-5,8
O=c1c(=NNc2ccc(S(=O)(=O)N3CCOCC3)cc2)c(=O)c2ccccc12,108,112,-24,6
COc1ccc(CNn2cnnc2)c(O)c1,99,101,13,-2
Cc1ccc(C=Nc2cccc(Cl)c2)cc1,103,101,-18,-2
CN(Cc1ccccc1)C(=O)c1ccc2c(c1)NC(=O)C(N1CCOCC1)S2 (configuration not stated),101,102,-18,-11
O=C(O)c1c2c(nc3ccc(Br)cc13)CCCC2,106,103,-16,-1
CN(C1CCCC1)C1CCN(C(=O)CNC(=O)/C=C/c2ccccc2F)CC1,98,102,0,-1
O=C(OCc1ccccc1)C1=NNC2C(=O)N(Cc3ccccc3)C(=O)C12 (configuration not stated),100,101,-1,-12
CN(CC(=O)N1CCc2ccccc21)S(=O)(=O)c1cccc2cccnc12,101,97,-8,-2
c1ccc2c(NC3=NCCS3)cccc2c1,96,101,6,-4
CCCCN(C)C(=O)c1cn(CC(C)C)c(=O)c2cc(OC)c(OC)cc12,100,101,-1,95
COc1ccc(N/C=C2/CCCCC2=O)cc1,97,101,-47,4
CCc1ccc2nc(N3CCCCC3)c(C#N)cc2c1,102,104,-26,7
COc1ccccc1C1CCN(Cc2cccc3ccccc23)CC1,104,105,-16,-5
COCCNC(=S)Nc1ccn(C)n1,100,102,13,5
CCOC(=O)c1sc(S(N)(=O)=O)c(C(=O)OCC)c1C,104,99,14,6
CC(=O)Nc1c(O)[nH]c(=S)[nH]c1=O,102,100,-39,14
CCOC(=O)c1ccccc1NS(=O)(=O)c1ccc2c(c1)OCCO2,100,106,-6,18
CC1CC(C)CN(c2nc(Nc3ccccc3)c3cnn(C)c3n2)C1 (configuration not stated),102,101,0,51
CCC(=O)Nc1ccc(C(=O)Nc2ccc(S(=O)(=O)N3CCCCC3)cc2)cc1,100,100,-5,123
Cc1ccc2c(c1)N(CCC(=O)NCc1ccccc1)C(=O)CO2,101,104,8,0
CCCn1c(C(O)c2ccc3c(c2)OCO3)nc2ccccc21 (configuration not stated),99,102,.,-1
CC(C)NC(=O)/C(C#N)=C/c1nn(Cc2ccccc2)cc1-c1cccnc1,101,105,-8,8
Cc1ccc(C)c(C(=O)C(C)OC(=O)c2cccn2C)c1 (configuration not stated),104,106,-23,-12
Cc1ccsc1CNCC1CCCO1 (configuration not stated),108,98,15,.
CCc1ccc(CN(Cc2cn[nH]c2-c2ccc(OC)cc2)C(=O)Nc2ccc3c(c2)OCCO3)cc1,100,107,-26,-5
Nc1nc2c(c(Nc3ccccc3)n1)C(=O)CCC2,107,99,-77,6
O=C(CCc1nc2ccccc2c(=O)[nH]1)NC1CCCCC1,97,100,-13,-12
CC(NC(=O)C(C)N1CCN(S(=O)(=O)c2ccc(F)cc2)CC1)c1ccccc1 (configuration not stated),102,106,-9,-1
O=C(Cc1ccccc1)NCc1ccc(-n2cccc2)cc1,106,104,-24,-3
O=C1C2(CCC13COC(c1ccco1)OC3)COC(c1ccco1)OC2 (configuration not stated),98,102,-8,-12
Cc1nn(-c2ccccc2)c(C)c1Sc1n[nH]c(=O)[nH]c1=O,100,105,-18,11
CCCCn1c(N)c(N(C)C(=O)CSc2nnc(C)n2-c2ccccc2OC)c(=O)[nH]c1=O,106,113,-16,-5
CCC(=O)NC1(C(F)(F)F)C(=O)NC(C)=C1C(=O)OC (configuration not stated),103,100,-7,-5
CCOC(=O)C1CCN(C(=O)c2cccc(Cl)c2)CC1,105,101,-65,-9
CCn1c(=O)c(C(=O)CC#N)c(N)n(Cc2ccccc2)c1=O,102,108,-4,-7
CC(=O)Nc1ccc(-c2nc3ccc(NC(C)=O)cc3s2)cc1,100,102,-9,.
Cc1cc2ccccn2c1C(=O)c1ccccc1,101,105,.,38
CCOC(=O)c1c(C)c(C(=O)Nc2cccc(C)c2)c(C)n1C,103,103,-23,-3
C=CCN1C(=O)C2Cc3c([nH]c4ccccc34)C(c3ccc(O)cc3)N2C1=S (configuration not stated),88,170,-49,-2
O=C1CC(NC(=O)c2ccc(Cl)cc2)C(=O)N1 (configuration not stated),102,102,.,79*
O=C(NCCO)c1cc[n+](CC(=O)c2cccs2)cc1,102,98,-35,15
CCCN1/C(=C(\C#N)C2=NS(=O)(=O)c3ccccc32)N(C)c2ccccc21,98,96,-9,5
CC(SC12CC3CC(CC(C3)C1)C2)C(=O)O (configuration not stated),102,104,19,-14
O=C(CSC1=NCCS1)NC(c1ccccc1)c1ccccc1,100,103,.,-6
CCn1c2ccccc2c2nn(C)c(=N)nc21,102,101,-2,2
O=C(COC(=O)C1CC1)Nc1cc(Cl)cc(Cl)c1,103,102,.,-11
# The results go on:
SMILES,Polio RdRp inh,Polio RdRp inh intensity,Mtb MenB inh,Mtb MbtI inh
CCN(CC)C(=O)CSC1=Nc2ccccc2C2=NC(Cc3c[nH]c4ccccc34)C(=O)N12 (configuration not stated),100,123,-2,-3
CN1C(=O)CSc2ccc(NC(=O)N3CCOCC3)cc21,103,106,-3,-11
Cc1ccccc1-n1c(O)c(/C=N/c2nccs2)c(=O)[nH]c1=O,99,95,-29,18
CN1CCc2nc(SCc3cccc(Cl)c3)c(C#N)cc2C1,100,101,-20,41

# Ordered by molar mass (rising): 17 of the compounds above.
SMILES,Polio RdRp inh,Polio RdRp inh intensity,Mtb MenB inh,Mtb MbtI inh
N#CC(C#N)=CNc1ccccn1,101,98,-76,-5
COc1ccc(CNn2cnnc2)c(O)c1,99,101,13,-2
CCN1CCCC1Cn1c(=S)[nH]c2ccccc2c1=O (configuration not stated),103,105,-21,18
CCC(=O)NC1(C(F)(F)F)C(=O)NC(C)=C1C(=O)OC (configuration not stated),103,100,-7,-5
CCCCn1c(SCC(=O)NC)nc2ccccc2c1=O,109,113,-9,-2
CN1C(=O)CSc2ccc(NC(=O)N3CCOCC3)cc21,103,106,-3,-11
CC(C)n1c(C(O)c2ccc(N(C)C)cc2)nc2ccccc21 (configuration not stated),105,103,-26,0
CCCOc1ccc(OCCSc2nc(N)cc(=O)[nH]2)cc1,103,104,-38,-9
N#CCSc1nc(C2CC2)cc(-c2ccc(F)cc2)c1C(N)=O,102,113,-4,.
CCCNC(=O)C1CCN(c2nn3c(=O)cc(C)nc3s2)CC1,106,106,-14,16
Cn1c(-c2sc(=S)n(-c3ccccc3)c2N)nc2ccccc21,104,111,-20,2
O=C(CCc1ccccc1)Nc1ccc(C(=O)OC2CCCCC2)cc1,104,104,4,.
CC(C)NC(=O)/C(C#N)=C/c1nn(Cc2ccccc2)cc1-c1cccnc1,101,105,-8,8
CN(CC(=O)N1CCc2ccccc21)S(=O)(=O)c1cccc2cccnc12,101,97,-8,-2
CN(C1CCCC1)C1CCN(C(=O)CNC(=O)/C=C/c2ccccc2F)CC1,98,102,0,-1
O=C(OCc1ccc(Br)cc1)C1CCCCN1S(=O)(=O)c1ccc(F)cc1 (configuration not stated),102,104,-106,-5
CN(C)S(=O)(=O)c1ccc(C(=O)NC2=N/C(=C(/C#N)C(=O)N3CCCCC3)c3ccccc32)cc1,100,105,2,8
